LANA-H2A inh – blocks KSHV LANA binding to histone H2A/H2B. AID 2629. actives 0.6% (n = 320,000). inhibition, % (concentration not given with the values). cell-free LANA-H2A/H2B peptide, fluorescence polarization. Q9QR71; in the data active means inhibition mostly above about 10%, no sharp cut-off; inactive means mostly below about 6.7%;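 further: stock transfer was 7.5 nL into about 10 µL; 0% = median of vehicle wells and 100% = median of positive control wells; one replicate is shown; the record names a cut of 25% in any replicate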
Calb FLC – C. albicans growth modulation with fluconazole; growth inhibition, % (concentration not given with the values); AID 1979; C. albicans CaCi-2 (fluconazole-resistant clinical isolate) + fluconazole, Alamar Blue growth, 48 h; actives 0.57% (n = 300,000);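 active means most replicates above 75%; inconclusive means exactly half above 75%; inactive means most below 75%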;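 further: all wells also contain fluconazole at 8 µg/ml as a sub-toxic cotreatment; 0% = median of DMSO wells and 100% = median of geldanamycin control wells; wells of about 8 µL received 7.5 nL stock; the first replicate is given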
Bfl-1 A1 inh – inhibitors of the anti-apoptotic protein A1, read as caspase activation; MEF A1-2A-BIM cells, Caspase-Glo 3/7 luminescence, 3 h; percent of clofoctol response, vehicle zero; caspase activation, % (no concentration beside the values); actives 0.066% (n = 330,000);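 active means over half of replicate activation scores above 10%, or exactly half above 10 with the replicate mean above 10; inconclusive means replicate mean below 10 yet half the replicates above 10; inactive means over half of replicates below 10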;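 further: wells of about 30 µL received 50 nL stock; many hits fall short of the cut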
Beta cell apopt – blocks beta cell apoptosis; INS-1E cytokine-induced death, ATP luminescence, 48 h; percent of positive-control rescue, neutral wells zero; actives 0.8% (n = 300,000); AID 435005; protection from apoptosis, % (no concentration beside the values);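 active means all replicates at 75% or more, or half of them and the mean; inconclusive means half reach 75% but not the mean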;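 further: 0% = cytokine-treated negative control wells and 100% = positive control rescue; higher means more ATP so stronger rescue from cytokine killing; wells of about 40 µL received 100 nL stock; the first replicate is given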
RanGTP-Impb inh – disruptors of Ran-importin-beta complex formation – biochemical, FRET, CFP-Ran, YFP-importin-beta, homogeneous, primary screen | cell-free CFP-Ran/YFP-importin-beta FRET ratio | inhibition, % (concentration not given with the values) | actives 1.1% (n = 300,000) | AID 2216;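 active means most replicates above 15%; inconclusive means exactly half above 15%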;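 further: 0% = DMSO wells and 100% = Ran loaded with GDP instead of GTP; wells of about 40 µL received 100 nL stock; the first replicate is given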
Beta2AR agonist – agonists of human beta-2 adrenergic receptor inducing internalization | P07550 | Am2.2-beta2AR cells, FAP receptor internalization, flow cytometry; reference of the scale not given here | response, % (no concentration beside the values) | actives 0.43% (n = 340,000) | AID 504454;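 active means response above a set limit, near 3 SD of response in nonfluorescent compounds, cut at about 42% in these data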;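 further: stock transfer was 100 nL into about 11 µL; a reference agonist was the positive control; negative values mostly stem from fluorescent compounds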
Target sequence (P07550 whole entry, looked up): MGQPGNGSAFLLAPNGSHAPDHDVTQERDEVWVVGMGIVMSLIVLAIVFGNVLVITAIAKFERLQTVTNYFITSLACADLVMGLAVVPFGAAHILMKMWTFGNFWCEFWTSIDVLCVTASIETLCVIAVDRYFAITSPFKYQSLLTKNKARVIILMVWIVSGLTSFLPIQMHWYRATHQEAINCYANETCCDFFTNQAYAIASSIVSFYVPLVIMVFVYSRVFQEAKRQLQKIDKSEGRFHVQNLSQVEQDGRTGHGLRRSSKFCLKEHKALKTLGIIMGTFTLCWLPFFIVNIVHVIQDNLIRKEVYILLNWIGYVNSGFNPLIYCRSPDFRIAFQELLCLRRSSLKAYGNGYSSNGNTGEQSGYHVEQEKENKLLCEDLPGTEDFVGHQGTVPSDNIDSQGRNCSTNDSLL
UCH37 DUB inh – human UCH37 deubiquitinating enzyme inhibition; AID 588478; Q9Y5K5; inhibition, % (concentration not given with the values); purified proteasome/UCH37, Ub-AMC cleavage fluorescence; actives 0.33% (n = 330,000);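 active means mean of two replicates above 20%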;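 further: 0% = compound-free wells with enzyme and 100% = wells lacking proteasome; stock transfer was 100 nL into about 20 µL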
Target sequence (Q9Y5K5 whole entry, looked up): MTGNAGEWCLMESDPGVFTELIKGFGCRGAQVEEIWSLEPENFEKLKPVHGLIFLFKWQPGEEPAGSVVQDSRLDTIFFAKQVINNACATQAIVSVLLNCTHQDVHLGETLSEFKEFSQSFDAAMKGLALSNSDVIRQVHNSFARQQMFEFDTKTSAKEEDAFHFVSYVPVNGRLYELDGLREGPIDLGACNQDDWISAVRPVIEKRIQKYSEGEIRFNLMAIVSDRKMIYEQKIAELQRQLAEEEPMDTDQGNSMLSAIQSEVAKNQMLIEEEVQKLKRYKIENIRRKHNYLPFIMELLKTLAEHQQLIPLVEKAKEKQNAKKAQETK
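Material: human UCH37 enzyme supplied as purified proteasome complex / Amount: 0.15 nM proteasome as dispensed / Buffer or medium: pH 7.4 Tris-HCl (50 mM) with ovalbumin, ATP-MgCl2, DTT / Times: preincubation 30 min, reaction 25 min, room temperature / Technique: AMC fluorescence from Ub-AMC cleavage, excitation 355 nm, emission 460 nm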
T cruzi repl – blocks replication of Trypanosoma cruzi | T. cruzi beta-gal in NIH3T3, luminescence, 90 h | inhibition, % (concentration not given with the values) | actives 1.4% (n = 300,000);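 active means mean inhibition across valid replicates above about 55%, limit read from the data; inconclusive means mean below that limit but half or more replicates reach it; inactive means mean below it, under half of replicates reach it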;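 further: signal also drops with host cell toxicity which is not excluded here; 0% = plate median of DMSO wells and 100% = zero luminescence signal; higher percent means less beta-gal luminescence so fewer parasites; stock transfer was 50 nL into about 50 µL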
An asterisk follows results filed as active; i = inactive; ? = inconclusive; nt = no result given. Outcome played no part in choosing rows, and some 4.3% of all compounds hit somewhere here.

Values run as follows: LANA-H2A inh	Calb FLC	Bfl-1 A1 inh	Beta cell apopt	RanGTP-Impb inh	Beta2AR agonist	UCH37 DUB inh	T cruzi repl
CCN1C(=NCCc2ccccn2)N[C@@H](c2cccc(C(F)(F)F)c2)C(C(=O)OC)=C1C
→ -5.2	nt	0.9	-2	nt	4	3.5	nt
O=C(Oc1c(CN2CCOCC2)cc(Cl)c2cccnc12)c1ccccc1F
→ -3.0	102*	-0.1	63	33*	-10	1.0	74*
CCCCNS(=O)(=O)c1ccc2nc(SCC(=O)c3ccccc3OC)[nH]c2c1
→ -0.8	8	-0.6	0	0.8	-7	5.9	-9
Cc1nnc(SCC(=O)Nc2ccccc2C(=O)NC2CC2)s1
→ 0.2	?	-0.3	-5	2.7	2	-2.1	3
Cc1ccc(Cn2cnc3c(cnn3-c3ccc(F)cc3)c2=O)cc1
→ 6.4	-2	0.4	-2	-2.0	2	0.9	-6
Cc1nc(N/N=C/c2ccc(O)cc2)c2cnn(-c3ccccc3)c2n1
→ -3.3	58	0.6	1	-0.5	22	nt	30
CN(CCC#N)C(=O)COC(=O)/C=C/c1ccc2c(c1)OCO2
→ -0.7	-9	0.3	-4	1.8	1	-45	-9
CCOc1ccc(NS(=O)(=O)c2ccc(OCC(=O)NCCCOC)cc2)cc1
→ -2.8	5	0.6	-5	?	2	1.2	-5
O=C(O)CC1(O)C(=O)N(Cc2ccccc2)c2ccccc21 (stereo unspecified)
→ -4.4	-1	0.4	-3	0.7	-3	-0.9	-2
CCc1ccc(NC(=O)c2ccccc2NC(=O)C2CCCO2)cc1 (stereo unspecified)
→ -1.7	-4	0.4	8	-2.8	-3	0.8	-2
O=S(=O)(NCCCCCNS(=O)(=O)c1ccc(F)cc1)c1ccc(F)cc1
→ -1.1	1	1.7	-2	3.8	1	-2.0	-19
O=C(O)Cn1ccc2cc(S(=O)(=O)N3CCCCCC3)ccc21
→ 4.4	-12	0.4	0	0.7	-2	-2.5	-12
COc1ccc2nc(NC(=O)C3CC(=O)N(c4ccccc4)C3)sc2c1 (stereo unspecified)
→ 8.5	25	0.0	5	2.8	0	4.1	5
CC1CCN(CC(CS(=O)(=O)c2ccc([N+](=O)[O-])cc2)N2CCC(C)CC2)CC1 (stereo unspecified)
→ 2.5	-18	1.0	-31	-2.1	5	1.9	0
FC(F)(F)c1cccc(-c2noc(CN3CCOCC3)n2)c1
→ -3.0	-2	0.5	-7	2.4	10	0.5	-5
CC(C(=O)Nc1ccc(F)c(F)c1)N1CCN(C)CC1 (stereo unspecified)
→ -3.2	-4	-0.7	-2	0.7	18	0.3	9
O=C(c1cccc2c1C(=O)N(Cc1cccnc1)C2)N1CCN(c2ccccc2)CC1
→ -3.0	-3	0.3	6	-1.4	5	5.7	-2
Cn1c(=O)c2c(nc(OCCc3ccccc3)n2C)n(C)c1=O
→ -2.2	-6	1.2	7	-1.4	-9	1.5	-11
O=S(=O)(c1ccccc1)N1CCN(S(=O)(=O)N2CCCCCC2)CC1
→ 0.3	2	1.9	2	-1.5	5	1.0	8
Cc1ccc(S(=O)(=O)N2CCCOC2CNC(=O)C(=O)NCCN2CCOCC2)cc1 (stereo unspecified)
→ 1.9	-3	-0.7	-2	7.0	7	3.6	-10
CCN(C(=O)c1cc2c(=O)n3ccccc3nc2n1CCCOC)C1CCCCC1
→ 1.2	-6	-0.3	8	2.0	-9	i	21
O=C(NCC(=O)N1CCC(N2CCCCC2)CC1)C1CCCCC1
→ 2.8	2	-0.9	-3	-0.9	-9	4.1	-17
Cc1ccc(N2CC(C(=O)Nc3cccnc3)CC2=O)cc1Cl (stereo unspecified)
→ -0.1	-9	0.2	-6	6.0	-12	5.2	-4
O=C(/C=C/NNC(=O)c1ccc(Br)cc1)c1ccccc1
→ 1.1	9	-0.3	-2	1.9	0	nt	-6
COc1ccccc1N(CN1CCCC1=O)C(=O)COc1ccccc1
→ -3.6	-1	0.7	-3	-4.1	-5	0.5	3
O=C(CSc1nc(-c2ccccc2)nc2c1CCCC2)N1CCOCC1
→ -1.4	4	0.6	-3	5.0	-15	0.5	21
O=C(Nc1ccc(S(=O)(=O)N2CCOCC2)cc1)C1CC(=O)N(c2ccc(F)cc2)C1 (stereo unspecified)
→ -7.2	-2	0.1	1	3.7	10	4.2	11
CC(=O)n1cc([C@@H]2C=C(C(=O)N3CCN(Cc4ccc5c(c4)OCO5)CC3)O[C@H](OCCCCO)C2)c2ccccc21
→ -2.7	4	-0.3	-7	-3.6	-2	5.3	25
Cc1ccc(CNc2nc3c([nH]2)c(=O)n(C)c(=O)n3C)cc1
→ -2.2	1	0.8	0	-2.1	0	3.7	-12
CCC(C)CCN1C(N(C)C)=NC[C@@H]1Cc1ccccc1 (stereo partly specified)
→ 3.7	nt	-0.4	-8	nt	5	4.0	nt

Values run as follows: LANA-H2A inh	Calb FLC	Bfl-1 A1 inh	Beta cell apopt	RanGTP-Impb inh	Beta2AR agonist	UCH37 DUB inh	T cruzi repl
O=C(Nc1ccc2nc3n(c(=O)c2c1)CCCCC3)c1ccccc1Cl
→ -1.5	27	0.2	3	-0.8	1	4.2	12
CC(=O)Nc1ccc(C(=O)OCC(=O)N2CCCC2=O)cc1
→ -4.1	nt	1.2	-3	nt	-4	3.1	nt
CCOCCCNC(=O)CN1C(=O)COc2ccc(S(=O)(=O)N3CCOCC3)cc21
→ nt	5	nt	nt	1.8	-3	0.4	-14
COc1ccc(C(C)=O)cc1COC(=O)c1cc(C)oc1C
→ -1.7	-19	1.2	-1	nt	-1	1.2	nt
Cc1ccc(C(=O)N/N=C\c2cccs2)cn1
→ 3.9	-10	-0.2	-4	0.0	-8	nt	1
O=S(=O)(c1ccccc1)c1nc(-c2ccccc2Cl)oc1NCCCN1CCOCC1
→ -2.3	nt	-0.1	-6	nt	16	2.3	nt
O=C(N/N=C/c1coc2ccc(Cl)cc2c1=O)c1cc(O)cc(O)c1
→ 2.4	30	0.8	-14	0.8	3	nt	-25
COCCNC(=O)C(OC(=O)c1nsc(Cl)c1Cl)C(C)C (stereo unspecified)
→ -7.0	?	0.6	nt	2.5	-3	2.5	-2
N#C/C(=C/c1ccc(-c2ccccc2[N+](=O)[O-])o1)C(=O)NCCN1CCCCC1
→ 1.8	-24	1.6	-10	0.8	-4	9.0	8
COc1ccc(N2CCN(C(=O)CCN3C(=O)C4C5C=CC(C5)C4C3=O)CC2)cc1 (stereo unspecified)
→ 2.1	4	0.2	-11	2.6	-3	0.0	5
CCC(=O)Nc1c(-c2ccc(C)cc2)c(=O)c2ccccc2n1C
→ -0.5	16	1.6	7	0.0	4	-12	-5
COc1ccc(C)cc1-n1nnnc1SCC(=O)NC(=O)NCc1ccco1
→ -4.7	-4	-0.1	-7	3.7	4	4.7	5
CCCOP(=O)(OCCC)C(NC(=O)C(C)(C)C)c1ccccc1 (stereo unspecified)
→ -4.5	15	-0.7	-2	-1.6	2	-2.3	2
CCCCN(C(=O)c1ccc(COc2ccccc2)o1)c1c(N)n(CC(C)C)c(=O)[nH]c1=O
→ 1.0	nt	-1.0	-4	nt	3	-0.6	nt
COc1ccc(OCCNC(=O)C(c2ccccc2)c2ccccc2)cc1
→ -0.9	-1	-0.1	0	3.8	-7	1.5	16
O=C(NCc1ccc2c(c1)OCO2)C1CCN(S(=O)(=O)c2ccc(F)cc2)CC1
→ -4.6	9	1.1	nt	3.5	3	1.1	-1
COc1ccc(N2CCN(CC(=O)Nc3nc(C)cs3)CC2)cc1
→ 4.2	-8	-0.4	nt	1.3	0	4.8	-2
COc1ccc(CNC2CCCc3ccccc32)cc1OC (stereo unspecified)
→ 31*	-6	0.7	-4	-2.2	-2	nt	5
O=C(Nc1ccc(N2CCCC2)c(Cl)c1)c1cccnc1
→ -5.4	0	?	5	-0.5	-2	5.4	8
CCN1CCc2c(OCc3ccc(C)cc3)cccc2C1=O
→ 0.0	3	1.4	-2	nt	1	-0.5	nt
COc1ccc(N2C(=O)C3[C@@H](C2=O)C2(Cl)C(Cl)=C(Cl)C3(Cl)C2(OC)OC)cc1 (stereo partly specified)
→ -6.5	1	0.4	-4	-4.0	-4	0.7	12
OC1(Cc2ccccc2)CCNCC1
→ -1.0	11	0.0	nt	3.9	4	2.9	3
Cc1ccc(S(=O)(=O)N2CCN(c3ncnc4sccc34)CC2)cc1
→ 3.6	71	-0.4	89*	0.4	-17	1.8	-3
Cc1ccc(C)c(NC(=O)C2CC(O)CN2C(=O)OCc2ccccc2)c1 (stereo unspecified)
→ 2.1	-1	0.1	1	0.0	-4	-0.3	-7
Cc1ccc(Cc2cnc(NC(=O)/C(C#N)=C/c3ccc(-c4ccccc4[N+](=O)[O-])o3)s2)cc1
→ -0.6	5	0.2	5	-9.7	4	10	-7
Cc1ccc(NC(=O)COC(=O)C2CC2)cc1Cl
→ 5.3	nt	-0.1	-3	nt	1	-0.5	nt
CCCN1CCC(NC(=S)Nc2ccc(S(N)(=O)=O)cc2)CC1
→ -2.2	48	0.2	-4	6.2	-1	6.7	-15
COc1cccc(OC)c1OCCNCCO
→ 5.1	1	0.2	-3	-1.7	-2	-3.0	-17
Cc1cccc(Oc2cnn(C(C)(C)C)c(=O)c2Cl)c1
→ 2.0	-9	-0.3	2	2.4	-8	2.6	-11
CCOC(=O)N1CCN(c2c(NCCCOC(C)C)c(=O)c2=O)CC1
→ 2.9	10	0.1	1	?	3	3.7	-13

Values run as follows: LANA-H2A inh	Calb FLC	Bfl-1 A1 inh	Beta cell apopt	RanGTP-Impb inh	Beta2AR agonist	UCH37 DUB inh	T cruzi repl
CCCC(=O)N(CCN1CCOCC1)c1nc2c(C)ccc(C)c2s1
→ -3.0	-1	-0.1	-2	3.5	2	-2.3	12
O=C(CCCCCNc1nc(=S)[nH]c2ccccc12)N1CCN(c2ccccn2)CC1
→ 4.2	8	0.6	19	-3.0	0	2.0	-1
COc1cccc(C(=O)OCCN2CCOCC2)c1
→ -0.1	2	0.6	0	0.5	-1	5.9	-7
CCCc1ccc2oc(C(=O)N3CCC(O)CC3)c(C)c2c1
→ nt	4	nt	nt	2.6	2	2.0	8
CC(O)[C@H]1CNC(=O)C(=O)N1CCc1cc(C(F)(F)F)cc(C(F)(F)F)c1 (stereo partly specified)
→ 5.3	-11	0.5	0	5.6	0	0.1	-17
O=S(=O)(Nc1ccncc1Cl)c1cccc(Cl)c1Cl
→ -1.1	-9	-0.1	-3	-1.7	1	0.4	6
COc1cc(OC)nc(Oc2ccccc2C(=O)Oc2cccc(C)c2)n1
→ 9.9	-28	1.8	nt	-2.5	11	1.5	-7
COc1cc([N+](=O)[O-])cc(/C=N/NC(=O)c2ccc(C)nc2)c1O
→ -3.1	-6	-4.6	-13	-0.2	-2	nt	8
COC(=O)c1ccc2c(c1)C(=O)/C(=C/c1ccc(C)cc1)O2
→ 1.4	-2	0.6	0	1.3	6	-1.1	-14
CC1CCN(C(=O)Cn2cc(S(=O)(=O)CC(=O)N3CCOCC3)c3ccccc32)CC1
→ -2.3	5	0.9	1	-1.8	9	-3.0	-14
Cc1ccc(C)c(-c2cc(C(=O)NN3CCOCC3)c3ccccc3n2)c1
→ -12	8	1.1	-3	-1.2	5	2.4	-5
